# Screens from PubChem BioAssay.
# D2 potentiator: Beta-Arrestin HTS for Positive Allosteric Modulators of the Human D2 Dopamine Receptor: Potentiators. potentiation, % (concentration not given with the values). DiscoveRx D2 beta-arrestin cells, luminescence, 90 min; 100% = 57 uM dopamine signal. AID 624464, 2012. 360,000 tested, 0.23% active. D(2) dopamine receptor (Homo sapiens), P14416; active = potentiation of 50% or more; inconclusive = 30% to 50%; inactive = 30% or less;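 further: compound concentration not given in the record; tested on top of an EC20 dose of dopamine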
# Target sequence (P14416 whole entry, looked up): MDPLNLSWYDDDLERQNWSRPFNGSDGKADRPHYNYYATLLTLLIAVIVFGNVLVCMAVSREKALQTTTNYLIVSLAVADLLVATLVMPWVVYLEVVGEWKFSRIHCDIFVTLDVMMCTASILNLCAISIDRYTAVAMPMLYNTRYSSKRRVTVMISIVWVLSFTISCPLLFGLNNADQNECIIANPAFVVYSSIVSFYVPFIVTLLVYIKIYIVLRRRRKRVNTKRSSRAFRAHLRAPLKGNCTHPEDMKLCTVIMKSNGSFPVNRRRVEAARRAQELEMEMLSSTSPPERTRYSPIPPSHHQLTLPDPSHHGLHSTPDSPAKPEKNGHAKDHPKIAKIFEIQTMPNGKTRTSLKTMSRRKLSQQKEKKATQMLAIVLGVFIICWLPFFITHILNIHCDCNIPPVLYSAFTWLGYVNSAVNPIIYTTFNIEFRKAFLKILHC
#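 PathHunter beta-arrestin assay in DiscoveRx D2 cells. Compounds were added with an EC20 of dopamine (50 nM final) for 90 min at 37 deg C. Luminescence was read 1 h after detection reagent, with 57 uM dopamine as the EC100 control.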
# TRPV1 PAM: HTS Assay for Compounds that Act as Potentiators of the Vanilloid Receptor 1; TRPV1-expressing cells, Fluo-8 calcium influx, capsaicin EC20 potentiation; host cell line not named in the record; control for the full effect not named in the record; potentiation, % at 8.33 µM; 320,000 tested, 0.02% active; AID 540277, 2011; active means potentiation above 80%; inconclusive means 30% to 80%; inactive means below 30%; further: 0% is about no effect
#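 TRPV1-expressing cells were cultured overnight at 35.5C and loaded with Fluo-8 calcium dye for 40 to 90 min at room temperature. After a 10 s baseline, compound was added and calcium influx was read kinetically for 3 min (ex 480/em 520 nm).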
# TRPML1 inh: qHTS for Inhibitors of the Human Mucolipin Transient Receptor Potential 1 (TRPML1); 390,000 tested, 0.02% active; Mucolipin-1 (Homo sapiens), Q9GZU1; activity change, negative = inhibition, % (test concentration not listed); TRPML1-inducible cells, Ca2+ dye fluorescence, FDSS; active compounds read low; inhibition of EC80 agonist-evoked calcium signal; in the data active means activity change below about -50%; inconclusive means about -30% to -50%; inactive means above about -30%;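 further: stimulus is agonist 54-4 at its EC80 concentration; on the % scale 0 is the no-effect control and ±100 the full control effect; compound concentration not given in the record; the text of the record puts the active cut at -80%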
# Target sequence (Q9GZU1 whole entry, looked up): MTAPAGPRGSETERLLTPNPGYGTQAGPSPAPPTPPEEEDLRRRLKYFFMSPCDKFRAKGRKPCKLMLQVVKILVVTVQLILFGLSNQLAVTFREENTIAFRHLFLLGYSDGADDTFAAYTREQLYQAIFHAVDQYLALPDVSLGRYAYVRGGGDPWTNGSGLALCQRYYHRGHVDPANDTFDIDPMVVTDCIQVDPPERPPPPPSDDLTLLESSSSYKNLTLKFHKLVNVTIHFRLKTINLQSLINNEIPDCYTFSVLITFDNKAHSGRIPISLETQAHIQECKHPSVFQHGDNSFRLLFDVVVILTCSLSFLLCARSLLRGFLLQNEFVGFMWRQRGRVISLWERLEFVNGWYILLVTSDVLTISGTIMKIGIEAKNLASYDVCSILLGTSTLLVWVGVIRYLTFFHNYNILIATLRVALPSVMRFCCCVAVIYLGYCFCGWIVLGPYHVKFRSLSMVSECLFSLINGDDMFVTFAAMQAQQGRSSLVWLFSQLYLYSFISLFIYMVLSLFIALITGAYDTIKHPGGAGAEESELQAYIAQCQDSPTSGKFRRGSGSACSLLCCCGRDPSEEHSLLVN
#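 Tet-induced TRPML1-DL cells loaded with Ca8 no-wash calcium dye were read kinetically on FDSS. Compound addition was followed by EC80 agonist 54-4 (4 uM final); inhibition was read over 110 s.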
# CtBP-E1A blk: qHTS Assay for Inhibitors of the CtBP/E1A Interaction. activity change, % (test concentration not listed). CtBP / adenovirus E1A interaction (AlphaScreen). 340,000 tested, 0.49% active. AlphaScreen GST-E1A/His-CtBP binding, 1536-well; active compounds read low; control for the full effect not named in the record; in the data active means activity change below about -65%; inconclusive means about -30% to -65%; inactive means above about -30%; further: on the % scale 0 is the no-effect control and ±100 the full control effect
#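 Homogeneous bead-based format: GST-tagged E1A captured on glutathione donor beads, His-tagged CtBP on nickel acceptor beads; compounds precede bead addition by 2 h at 37 °C.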
# TRPML1 agonist: qHTS for Agonists of the Human Mucolipin Transient Receptor Potential 1 (TRPML1); activation, % (test concentration not listed); Mucolipin-1 (Homo sapiens), Q9GZU1; TRPML1-expressing cells, Ca2+ dye fluorescence, FDSS; host cell line not named in the record; reference of the full effect not given here; 410,000 tested, 0.12% active; in the data active = activation above about 50%; inconclusive = about 30% to 50%; inactive = below about 30%; further: 0% is about no effect; the text of the record puts the active cut at 80%
#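 Kinetic FDSS Ca2+ read in Tet-induced TRPML1-DL cells (ABD Ca8 dye plus quencher, 45-90 min RT loading): baseline, then compound, then 110 s agonist window; EC80 agonist 54-4 at 4uM final added afterwards for a 110 s antagonist window.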
# Six1-Eya2 inh: qHTS Assay for Inhibitors of the Six1/Eya2 Interaction | Homeobox protein SIX1 (Homo sapiens) + Protein phosphatase EYA2 (Homo sapiens), … | AlphaScreen GST-Six1/His-Eya2 binding, biochemical; active compounds read low; control for the full effect not named in the record | activity change, % (concentration not given with the values) | 360,000 tested, 0.56% active; in the data active = activity change below about -65%; inconclusive = about -30% to -65%; inactive = above about -30%; further: on the % scale 0 is the no-effect control and ±100 the full control effect
#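 AlphaScreen with GST-Six1 and His-Eya2 (5X mix: 250 nM and 500 nM), glutathione donor and nickel acceptor beads; buffer 50 mM Tris pH 8.0, 300 mM NaCl, 1 mM TCEP; 1 h at 37 C in the dark.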
# The depositor's hits bear a star; u = inconclusive; x = no result given; & = joins results of further samples.
mol	D2 potentiator	TRPV1 PAM	TRPML1 inh	CtBP-E1A blk	TRPML1 agonist	Six1-Eya2 inh
Cc1ccc(C(=O)COC(=O)c2cc(Cl)ccc2O)cc1[N+](=O)[O-]	-15.4	-5.3	42.4	1.0	1.7	9.4
CC(C)(C)N1CC2(c3ccccc3)CN(C(C)(C)C)CC(c3ccccc3)(C1)C2=O	-3.9	-9.0	4.5	11.7	-0.1	4.3
CC(=O)Nc1ccc(S(=O)(=O)Nc2cc(C)ccn2)cc1	6.8	-0.5	u	6.4	-0.6	6.5
O=C(COC(=O)c1ccccc1Cl)Nc1cccnc1Cl	-1.5	-12.5	2.4	2.6	0.0	2.2
CN(C)C(=S)NC1CCS(=O)(=O)C1 (configuration not stated)	-2.2	4.4	-8.2	x	-0.4	4.2
CN(C)CCP(=O)(c1ccccc1)c1ccccc1	3.5	7.3	-9.0	1.2	-0.7	20.5
CSCCC(NC(=O)/C(=C/c1ccc2c(c1)OCO2)NC(=O)c1cccc([N+](=O)[O-])c1)C(=O)O (configuration not stated)	-9.9	3.2	4.6	x	0.0	13.5
COc1ccccc1N1CCN(S(=O)(=O)CCNC(=O)CCCc2ccccc2)CC1	2.9	-0.4	2.2	-3.6	1.0	2.7
CCOc1ccccc1NC(=O)Cn1c(=O)c2ccccc2n(CC)c1=O	5.5	5.4	-2.5	6.4	1.3	-0.5
CN(C(=O)Nc1ccc(F)cc1)[C@H]1C[C@H]2c3[nH]c4ccccc4c3CCN2C(=O)[C@H]1CO	4.2	x	20.5	-2.7	-0.4	-3.7
C=CCn1cnc2c(nnn2-c2ccc(OC)c(OC)c2)c1=O	3.8	9.3	-2.8	-0.3	0.5	-4.4
CCCCCCC1CC(=CN(C)C)C(=O)O1 (configuration not stated)	-8.9	x	-25.7	1.7	-0.2	-1.7
CC(C)=CC(=O)N1CCCC(N2CCN(c3ccc(F)cc3)CC2)C1 (configuration not stated)	-4.8	2.8	10.2	4.2	0.3	2.9
Cn1c(NN)nc2ccccc2c1=O	-11.7	18.8	-10.6	1.5	0.4	-3.5
CCOc1ccc(-c2nc(CSc3nnc(C)s3)cs2)cc1OC	-5.0	-3.3	12.3	-2.2	3.0	-4.0
CC(NC(=O)COC(=O)CSc1ccc(F)cc1)c1ccc(F)cc1 (configuration not stated)	-2.2	-10.8	11.0	5.8	0.7	0.6
CCNC(=O)NC(=O)C(C)SCc1ccccc1C (configuration not stated)	-15.3	-5.8	38.2	13.8	1.4	5.6
Cc1cc(C)cc(NS(=O)(=O)c2ccc(Oc3ncc(C(F)(F)F)cc3Cl)cc2)c1	7.7	2.3	-12.1	-7.9	0.1	0.0
COc1ccccc1NC(=O)NCC(=O)Nc1ccc(F)c(F)c1	-12.2	-14.7	15.6	1.1	-1.5	-5.3
CCc1nc2ccc(C(=O)NCc3cccs3)cn2c1N(CCC(C)C)CCN(C)C	-21.3	x	14.4	-2.1	0.7	-3.7
COc1ccc(Nc2nc(-c3ccccc3O)nc3ccccc23)cc1	0.0	-7.7	-7.2	-15.4	-0.5	-24.1
Cc1ccc(-c2nc(SC(C)C(=O)N3CCCC3)n[nH]2)cc1 (configuration not stated)	-2.8	26.1	11.0	-7.0	-0.2	8.6
O=C(c1csc2ccccc12)N1CCN(c2ccc(Cl)c(Cl)c2)CC1	-0.5	19.4	-1.0	4.6	-0.2	8.0
CCCCn1c(N)c(N(CCOC)C(=O)c2cccc(N3C(=O)c4ccccc4C3=O)c2)c(=O)[nH]c1=O	10.8	-14.3	1.7	-1.0	-0.8	4.8
Cc1occc1C(=O)N1CCN(c2ccc([N+](=O)[O-])cc2)CC1	-9.8	-24.5	-10.3	-4.7	-0.5	-2.1
O=C1C2CCCN2C(=S)N1c1cc(Cl)ccc1Cl (configuration not stated)	u	0.1	-17.7	6.0	1.4	6.1
COCC(C)n1c(C)cc(C(=O)CSc2nnnn2C2CCCC2)c1C (configuration not stated)	4.8	-31.1	-15.9	x	-1.4	-7.3
CCOC(=O)N1CCC(N2CCCC(CO)(Cc3cccc(OC)c3)C2)CC1 (configuration not stated)	-11.5	-2.5	5.8	x	0.5	-1.9
Cn1nnc(NC(=O)c2ccc3ccccc3c2)n1	-11.3	16.1	35.1	0.3	-0.6	0.9
O=C(COc1ccccc1Cl)NCCCNC(=O)c1cnccn1	0.1	2.4	-13.1	6.0	4.4	0.2
c1cc2c3c(cccc3c1)-c1cnccc1-2	-2.4	x	11.8	13.0	1.7	-0.5
CC1=C(C(=O)N(C(C)C)C(C)C)CC(CC(=O)NC2CCCCC2)C(=O)N1Cc1ccccc1 (configuration not stated)	-4.2	x	42.4	-6.7	0.5	40.6
O=S(=O)(O)c1cccc(N=Nc2c(O)ccc3ccccc23)c1	-28.5	5.0	10.8	x	-0.9	-20.3
Cc1ccc(C(C(=O)NCc2ccc(F)cc2)N(C(=O)c2csnn2)C2CC2)o1 (configuration not stated)	-12.2	26.2	-2.3	8.9	3.1	0.5
O=C(N[C@H]1c2ccccc2C[C@H]1O)[C@H]1O[C@@H](n2ccc(=O)[nH]c2=O)[C@H](O)[C@@H]1O	-8.4	x	x	4.0	-0.1	11.0
O=S(=O)(c1cccc2nsnc12)N1CCc2ccccc2C1	1.1	-6.5	1.5	-9.8	0.3	-4.5
CNC(=O)CSc1nc2nc(C)cc(C)n2n1	4.0	-7.9	-1.9	-0.3	-0.1	-0.1
O=C(NN1C(=O)C2C3CCC(O3)C2C1=O)c1ccc(Br)o1 (configuration not stated)	6.2	8.1	4.0	4.4	0.3	13.5
CCCCN(C=O)c1c(CC)nc2c(OCc3ccc(Cl)cc3Cl)cccn12	-17.0	x	61.7	-18.9	3.0	-13.5
S=C(NCc1ccncc1)Nc1ccc(Cl)cc1Cl	-2.8	-20.0	9.8	6.2	0.5	2.0
O=C(O)C1C2C=CC3(CN(Cc4ccccn4)C(=O)C13)O2 (configuration not stated)	-3.9	-29.2	30.4	2.3	0.0	5.5
O=C(Nc1ccc(Cl)cc1)c1cc2nc(-c3ccco3)cc(C(F)(F)F)n2n1	4.0	1.5	-1.5	-3.5	-0.5	2.6
O=C(COC(=O)c1cc(Cl)ccc1O)NNC(=O)c1ccccc1F	-17.8	x	27.1	0.7	0.2	-11.3
CC(=O)N1CCN(S(=O)(=O)c2cccc(C(=O)N(Cc3ccccc3)c3cccc(C)c3)c2)CC1	-26.5	-13.9	-8.8	0.0	-0.1	3.8
O=C(c1sc2ccccc2c1Cl)N1CCN(c2ncccn2)CC1	1.8	7.1	-16.5	-11.1	2.7	-8.6
O=C(COC(=O)c1ccccn1)NC(=O)c1ccccc1	-3.4	-9.0	5.8	-4.4	-0.1	-14.0
CCOC(=O)c1cccc(NC(=O)CCn2c(=O)oc3ccccc32)c1	-5.5	1.4	8.0&-11.9	1.3	2.4&-1.4	2.0
CCOC(=O)c1c(C)[nH]c(C(=O)OCCOc2ccc(Cl)cc2)c1C	-3.6	19.4	-10.7	-0.1	1.1	0.4
Cc1nc2ccc(OC(=O)c3ccccc3)cc2s1	-23.7	-6.9	-2.1	x	2.3	9.7
C[C@@H]1NC(=O)[C@H](CCC(N)=O)NC(=O)c2cc([N+](=O)[O-])cc(I)c2NCC[C@@H](C(N)=O)NC1=O	-5.8	20.3	12.4	3.5	-0.6	-0.6
O=C1NC(=S)S/C1=C\c1ccc(SCc2ccccc2)o1	-4.4	2.8	18.4	-17.0	1.0	-23.7
CC(C)CCNC(=O)C(c1ccco1)N(Cc1cccs1)C(=O)Cn1nnc2ccccc21 (configuration not stated)	-3.6	7.6	-5.0	5.3	1.4	-1.4
O=C(O)CCSCC(=O)Nc1c(C(=O)C2CC2)oc2ccccc12	-0.4	-0.6	-2.4	1.9	4.5	-6.5
Cc1cc(C)c(NC(=O)CSc2nnc(-c3ccncc3)n2Cc2ccco2)c(Cl)c1	-4.1	6.3	-10.7	2.1	-1.2	0.5
COc1ccc(C(=O)CCC(=O)O)cc1	-1.9	-2.0	-1.2	8.1	0.0	2.0
CCCCNCCCOc1cccc(Cl)c1	-17.8	3.3	19.2	8.6	1.5	14.8
O=C1CCN(Cc2ccc(O)cc2)CCN1[C@H](CO)c1ccccc1	-13.5	-4.3	-24.0	0.7	0.4&0.7	4.7
CN(c1ccccc1)S(=O)(=O)c1cccc(NC(=O)C2CCCO2)c1 (configuration not stated)	-25.6	x	-7.1	-6.9	0.1	24.6
CCOC(=O)c1c(CN2CCN(c3ccccc3)CC2)oc2cc(Br)c(O)cc12	-9.1	4.7	10.4	x	-0.4	-28.3
CCCCNc1nnc(Cc2ccc(Cl)cc2)c(=O)[nH]1	-0.2	17.4	x	0.6	x	10.3
CCc1c(C)nc(N)n2c(SCC(=O)Nc3ccccc3OC)nnc12	-3.6	0.8	2.9	-1.0	0.3	4.1
O=C(NCc1ccccn1)Nc1cccc(Cl)c1Cl	-16.3	-5.5	-7.4	-2.0	0.3	-4.6

# Given with two lines to a compound: part of the list above.
# Screens in order – D2 potentiator | TRPV1 PAM | TRPML1 inh | CtBP-E1A blk | TRPML1 agonist | Six1-Eya2 inh
CN(c1ccccc1)S(=O)(=O)c1cccc(NC(=O)C2CCCO2)c1 (configuration not stated)
    -25.6 | x | -7.1 | -6.9 | 0.1 | 24.6
CCOC(=O)c1c(CN2CCN(c3ccccc3)CC2)oc2cc(Br)c(O)cc12
    -9.1 | 4.7 | 10.4 | x | -0.4 | -28.3
CCCCNc1nnc(Cc2ccc(Cl)cc2)c(=O)[nH]1
    -0.2 | 17.4 | x | 0.6 | x | 10.3
CCc1c(C)nc(N)n2c(SCC(=O)Nc3ccccc3OC)nnc12
    -3.6 | 0.8 | 2.9 | -1.0 | 0.3 | 4.1

# A different layout for 2 compounds above:
# Results follow in this order: D2 potentiator, TRPV1 PAM, TRPML1 inh, CtBP-E1A blk, TRPML1 agonist, Six1-Eya2 inh
COc1ccc(C(=O)CCC(=O)O)cc1
    -1.9, -2.0, -1.2, 8.1, 0.0, 2.0
O=C(COC(=O)c1ccccn1)NC(=O)c1ccccc1
    -3.4, -9.0, 5.8, -4.4, -0.1, -14.0
